Screens as filed in PubChem.
Sa ugtP lethal – growth inhibition of ugtP-null S. aureus, primary screen, RN4220 ugtP deletion, OD600 | 16 h; some inactives read as strong as hits | growth inhibition, % (concentration not given with the values) | 330,000 compounds, 0.54% hits;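 active = z-score under -3 and OD600 up to 0.15 on both plates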;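 note: plate controls were untreated wells for no effect and antibiotic for full effect; wells of about 80 µL received 100 nL stock; the first replicate is given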
Mtb hypoxia rep – PubChem AID 1159583 | M. tuberculosis hypoxia-regulated fluorescent reporter, fluorescence | fluorescence inhibition, % (concentration not given with the values) | 300,000 compounds, 0.1% hits;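 active = 35 to 45% if threefold the growth effect, above 45% if 1.5-fold the growth effect; inactive = the rest, general growth blockers included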;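 note: wells of about 50 µL received 100 nL stock; 0% = vehicle wells and 100% = reference inhibitor wells; whole bacteria with a GFP reporter of the hypoxia response; strong numbers were not always called active; many hits fall short of the cut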
Autofluor counter – flagged as autofluorescent in microsphere protease counterscreen; fluorescence intensity (no concentration beside the values); AID 624483; 360,000 compounds, 3.1% hits; compound autofluorescence counterscreen, microsphere flow cytometry; hits give high values;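 active = at least 3 SD above the mean of all compounds, about 16000 in these data; inconclusive = too few beads counted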;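 note: 100 nL of 1 mM stock went into each well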
BJeLR lethal – MLPCN primary cell-based screen for lethality selective to Ras in HRASV12 cells. 300,000 compounds, 0.17% hits. BJeLR (HRASV12) viability, CellTiter-Glo ATP luminescence, 48 h; reference of the scale not given here. inhibition, % (test concentration not listed);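 active = replicate mean above 50%; inconclusive = above 50% but judged a plate artefact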;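 note: 50 nL library stock added to about 25 µL; numbers are from one replicate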
PrP UTR inh – inhibition of PrP 5' UTR reporter expression | cell-based PrP 5' UTR mRNA reporter, plate reader | inhibition, % (concentration not given with the values) | 340,000 compounds, 0.35% hits;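 active = every replicate at 50% or more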;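 note: 0 = median of the neutral control wells; tested in H4 reporter cells; numbers are from one replicate; inactives centre near -14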
RN4220 kill – growth inhibition of S. aureus RN4220, primary screen, OD600. 330,000 compounds, 0.33% hits. AID 1259311, 2017. 16 h. inhibition, % (test concentration not listed);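 active = z-score of -3 or lower and OD600 up to 0.18 on both plates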;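 note: plate controls were untreated cells for no effect and reference antibiotic for full effect; stock transfer was 100 nL into about 80 µL; one replicate is shown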
Mtb hypoxia rep growth – recorded beside Mtb hypoxia rep, whose call it bears; growth inhibition, %; measured here: M. tuberculosis growth (absorbance);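 0% = vehicle and 100% = reference antibiotic; read after six days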
An asterisk follows results filed as active; ? = inconclusive; / = not tested or not shown.

SMILES	Sa ugtP lethal	Mtb hypoxia rep	Mtb hypoxia rep growth	Autofluor counter	BJeLR lethal	PrP UTR inh	RN4220 kill
C/C(=N\O)c1ccc2[nH]ccc2c1	/	/	/	3531	1.1	-10.6	/
OCC1OC(n2cnc3ccccc32)CC1O (stereo unspecified)	-0.3	3.8	6.1	4564	-3.3	-13.4	1.6
N#C/C(=C/c1ccc(-c2ccc(S(=O)(=O)N3CCOCC3)cc2)o1)C(=O)NC1CC1	-7.2	5.9	-0.3	4041	/	-0.5	2.2
OC[C@H]1O[C@@H](n2cnc3c(NC4CCCC4)ncnc32)[C@H](O)[C@@H]1O	/	/	/	6133	-15.0	-18.1	/
O=S(=O)(c1ccc(N2CCC(c3ccc(Cl)cc3)=N2)cc1)N(CCO)CCO	-9.0	24.4	18.1	?	7.8	-25.5	-4.2
CCOC(=O)[C@@H]1[C@H]2COc3cc(OC)ccc3[C@@H]2N2C(=O)N(c3ccc(Br)cc3)C(=O)[C@]12C	/	/	/	4033	2.9	-15.0	/
Cc1cc(NCCN(C)C)n2nc(-c3cccs3)cc2n1	-2.6	17.4	-0.1	6609	8.3	-16.5	1.0
CCn1c(CSCc2ccc(C)cc2)n[nH]c1=S	4.2	2.2	-2.0	3745	-5.5	-6.2	2.4
O=C1OCC2=C1C(c1ccccc1)CC(=O)N2c1ccc(F)cc1 (stereo unspecified)	3.0	3.4	0.2	4678	6.7	-19.8	8.0
COc1ccc(S(=O)(=O)N2CCC(c3nc4ccccc4[nH]3)CC2)cc1	5.6	4.1	12.6	5473	-2.3	-6.5	6.0
COc1ccc(OC)c(Nc2nc(N)c([N+](=O)[O-])c(N3CCOCC3)n2)c1	-16.3	4.1	-3.3	2558	0.8	-4.8	3.4
Cc1ccc(S(=O)(=O)O)c(C)c1N1CCCC1=O	2.0	5.4	4.8	20761*	-3.3	-24.8	2.3
CCc1ccccc1N1CSC2=C(C#N)C(c3ccccc3F)CC(=O)N2C1 (stereo unspecified)	5.3	-10.4	13.6	5251	-0.8	-9.6	20.0
Cc1cc(NC(=O)COC(=O)C2CCC2)no1	2.2	0.0	8.8	2607	-4.3	-14.3	1.8
O=C1CSC(c2cccc([N+](=O)[O-])c2)N1CCN1CCCCC1 (stereo unspecified)	9.7	9.1	8.7	2514	2.5	-11.8	2.1
CCCC(=O)N1CCc2cc(OC)c(OC)cc2C1c1cc2cc3c(cc2[nH]c1=O)OCO3 (stereo unspecified)	3.5	14.7	6.5	10150	-7.4	-7.6	3.7
O=C(O)c1cccc(Sc2cc(Cl)ccc2C(=O)O)c1	8.9	6.2	4.5	3034	/	-24.8	7.7
CC(=O)c1c(C)[nH]c(C(=O)CN2CCN(S(=O)(=O)c3ccccc3[N+](=O)[O-])CC2)c1C	-3.0	-9.5	8.4	8623	/	5.2	1.0
Cc1ccc(Cn2c(SCc3cccnc3)nc3c2c(=O)n(C)c(=O)n3C)cc1	-3.4	4.2	3.6	9880	-12.8	-10.3	6.7
COC(=O)C1C2SC(C)(C)C(C(=O)OC)N2C(=O)N1Cc1nc2ccccc2s1 (stereo unspecified)	-0.3	2.3	1.8	/	/	/	3.1
O=C(CN(c1ccccc1)S(=O)(=O)c1ccccc1)NN=Cc1ccco1	13.9	12.5	7.0	/	/	/	4.5
Cc1cc(Oc2ccc(Cl)cc2)nc(-c2ccccn2)n1	10.7	2.0	21.9	3504	4.1	-21.8	0.5
O=C(CSc1n[nH]c(-c2ccncc2)n1)Nc1ccc(Cl)c(Cl)c1	-11.3	-4.2	-1.3	3416	-9.3	-6.0	1.3
O=C(NCC1CCCO1)c1ccc(NC(=O)c2ccc([N+](=O)[O-])cc2)cc1 (stereo unspecified)	5.4	2.0	8.0	2935	-4.3	8.6	0.3
NCCCCC1NC(=O)C(CCC(=O)O)NC(=O)c2cc([N+](=O)[O-])cc(I)c2OCCC(C(N)=O)NC1=O (stereo unspecified)	2.7	-2.0	3.1	/	/	/	7.4

Following part
SMILES	Sa ugtP lethal	Mtb hypoxia rep	Mtb hypoxia rep growth	Autofluor counter	BJeLR lethal	PrP UTR inh	RN4220 kill
N#C/C(=C\c1ccncc1)C(=O)Nc1ccc(C(=O)O)cc1	9.9	15.3	-6.8	2987	-0.9	-7.1	1.9
Cc1ccc2[nH]c(C)c(CCNCc3cccnc3)c2c1	-2.3	4.2	-2.1	4620	-5.1	-2.3	1.5
Cc1ccc(NC(=O)c2cc3c(=O)oc4ccccc4c3s2)nc1	/	/	/	2008	-1.4	-7.5	/
O=C(CSc1nc2ccc([N+](=O)[O-])cc2[nH]1)c1ccc(Cl)cc1	1.6	4.9	4.7	2503	-3.5	-24.1	-1.9
CC(C)(C)N(Cc1ccccc1)C(=O)COC(=O)C1=NN(c2ccccc2)C(=O)CC1	6.2	11.4	-0.5	6946	/	-8.7	5.6
CC1=CC(C)(C)Nc2ccc(OC(=O)CN3C(=O)c4cccc5cccc(c45)C3=O)cc21	-3.1	1.0	2.0	7546	-1.9	0.8	-0.7
CCN(C(=O)CN1C(=O)S/C(=C\C=C\c2ccccc2)C1=O)C1CCS(=O)(=O)C1 (stereo unspecified)	-13.7	5.1	26.7	4446	1.2	-21.6	1.2
Cc1cc([N+](=O)[O-])nn1CC(=O)NN=Cc1ccccc1Br	-3.3	20.0	9.5	/	/	/	13.6
CCCCNC(=S)NC(C)(C)CO	11.5	4.4	-2.4	2589	0.9	-14.6	2.5
COc1ccc(S(=O)(=O)NC2CCSc3ccccc32)cc1OC (stereo unspecified)	/	/	/	4534	-7.9	0.1	/
Fc1ccccc1CCNc1c2c(nc3ncnn13)CCCC2	0.1	14.5	2.4	4110	5.5	-2.3	2.3
CN1CCN(NC(=O)c2cc([N+](=O)[O-])cc([N+](=O)[O-])c2)CC1	5.2	-6.5	10.4	18837*	13.6	-79.0	1.3
COc1cc(C2C(C#N)=C(N)Oc3cc(C)oc(=O)c32)cc(OC)c1OC (stereo unspecified)	6.0	-3.8	-2.2	3257	-0.6	-37.5	2.4
CC(=O)NC(CC(=O)OCC(=O)N1c2ccccc2NC(=O)C1(C)C)c1ccccc1 (stereo unspecified)	-3.8	0.0	1.1	3724	/	-6.6	-2.4
CC(=O)N/C(=N/c1nc(C)cc(C)n1)Nc1cccc(C)c1	10.3	4.9	-3.5	4055	2.9	-5.7	4.4
Cc1cc(=O)oc2c(CN3CCOCC3)c(O)ccc12	-2.4	6.0	-3.1	5131	/	-12.6	5.3
COc1ccccc1-c1cc(C(=O)Nc2cc(C)n(Cc3ccc(Cl)cc3)n2)no1	-18.1	-2.4	11.1	10479	-16.0	-14.1	-3.0
CC(C)[C@H](NC(=O)c1ccccc1)C(=O)OCC(=O)c1ccc2c(c1)NC(=O)CO2	0.5	-4.3	11.4	23418*	1.8	-24.9	-0.5
Cc1cccc(NC(=O)c2cc3cc([N+](=O)[O-])ccc3s2)n1	3.3	-2.2	5.5	3616	1.3	-33.9	-1.9
CC(=O)OC1N=C(c2ccccc2Cl)c2cc(Br)ccc2N(C)C1=O (stereo unspecified)	2.1	-10.1	-3.1	5101	-0.5	-22.0	0.7
CCCCN1C(=O)C(O)(CC(=O)c2ccccn2)c2ccccc21 (stereo unspecified)	0.5	11.8	5.1	2072	1.7	7.4	3.9
O=C(/C=C/c1ccc(S(=O)(=O)N2CCOCC2)cc1)NC(=S)Nc1ccc(N2CCOCC2)cc1	0.0	-4.5	-2.1	7436	3.3	-12.2	1.8
N#Cc1c(CSCC(=O)O)cc(=O)n2c1[nH]c1ccccc12	4.6	0.3	9.4	5306	5.4	2.8	2.7
C=CCNc1nc(N)c(C(=O)Nc2cc(C)on2)s1	-3.6	3.1	1.8	12972	-2.8	-83.9	2.1
Cc1cc(N2CCOCC2)n2nc(C)c(-c3ccccc3Cl)c2n1	3.7	-3.0	15.6	3668	-7.1	-0.1	2.9

Given in markdown: entries from further up
| SMILES | Sa ugtP lethal | Mtb hypoxia rep | Mtb hypoxia rep growth | Autofluor counter | BJeLR lethal | PrP UTR inh | RN4220 kill |
| --- | --- | --- | --- | --- | --- | --- | --- |
| Cc1cc(=O)oc2c(CN3CCOCC3)c(O)ccc12 | -2.4 | 6.0 | -3.1 | 5131 | / | -12.6 | 5.3 |
| COc1ccccc1-c1cc(C(=O)Nc2cc(C)n(Cc3ccc(Cl)cc3)n2)no1 | -18.1 | -2.4 | 11.1 | 10479 | -16.0 | -14.1 | -3.0 |
| CC(C)[C@H](NC(=O)c1ccccc1)C(=O)OCC(=O)c1ccc2c(c1)NC(=O)CO2 | 0.5 | -4.3 | 11.4 | 23418* | 1.8 | -24.9 | -0.5 |
| Cc1cccc(NC(=O)c2cc3cc([N+](=O)[O-])ccc3s2)n1 | 3.3 | -2.2 | 5.5 | 3616 | 1.3 | -33.9 | -1.9 |
| CC(=O)OC1N=C(c2ccccc2Cl)c2cc(Br)ccc2N(C)C1=O (stereo unspecified) | 2.1 | -10.1 | -3.1 | 5101 | -0.5 | -22.0 | 0.7 |
| CCCCN1C(=O)C(O)(CC(=O)c2ccccn2)c2ccccc21 (stereo unspecified) | 0.5 | 11.8 | 5.1 | 2072 | 1.7 | 7.4 | 3.9 |
| O=C(/C=C/c1ccc(S(=O)(=O)N2CCOCC2)cc1)NC(=S)Nc1ccc(N2CCOCC2)cc1 | 0.0 | -4.5 | -2.1 | 7436 | 3.3 | -12.2 | 1.8 |
| N#Cc1c(CSCC(=O)O)cc(=O)n2c1[nH]c1ccccc12 | 4.6 | 0.3 | 9.4 | 5306 | 5.4 | 2.8 | 2.7 |
| C=CCNc1nc(N)c(C(=O)Nc2cc(C)on2)s1 | -3.6 | 3.1 | 1.8 | 12972 | -2.8 | -83.9 | 2.1 |
| Cc1cc(N2CCOCC2)n2nc(C)c(-c3ccccc3Cl)c2n1 | 3.7 | -3.0 | 15.6 | 3668 | -7.1 | -0.1 | 2.9 |

Further records follow:
SMILES	Sa ugtP lethal	Mtb hypoxia rep	Mtb hypoxia rep growth	Autofluor counter	BJeLR lethal	PrP UTR inh	RN4220 kill
COc1cccc(C=NNC(=O)CC2C(=O)NN=C2C)c1OC (stereo unspecified)	14.0	12.2	6.3	/	/	/	6.3
COc1ccc(CP(=O)(c2ccccc2)c2ccccc2)cc1	7.5	2.8	5.1	2975	6.1	-11.5	-2.4
CCC(C)NC(=O)C(=O)NCc1ccccn1 (stereo unspecified)	0.5	-2.6	-11.3	4603	-1.6	-19.8	1.4
COC(c1ccccc1)c1nnc(CCC(=O)N(C)C(C2CC2)C2CC2)o1 (stereo unspecified)	-1.2	-2.1	11.5	2472	12.2	-30.4	-0.6
CCCCN1C(=O)c2ccc(C(=O)NCc3ccco3)cc2C1=O	10.3	4.2	2.9	5973	-8.7	-22.0	0.5
CN(C(=O)c1ccccc1Cl)c1ccccc1C(=O)NCCc1ccccc1	4.1	10.4	-2.5	5547	-3.8	-6.1	4.9
O=C(CSc1nc2ccccc2c(=O)[nH]1)c1ccc(O)cc1O	13.3	4.1	10.3	3311	-7.3	-11.7	6.7
Cc1ccc(-c2nn3c(C)nnc3s2)cc1NC(=O)c1cccnc1	5.1	4.6	3.1	8897	0.1	-10.7	-3.3
CN(C)c1ccc(/C(=N\O)c2ccccc2)cc1	/	/	/	10989	-7.2	-16.0	/
O=C(CNC(=O)c1ccc([N+](=O)[O-])cc1)c1ccccc1	2.7	1.0	2.8	8082	-4.5	-40.4	4.6
CCOC(=O)CCc1nc2ccccc2[nH]1	5.8	-2.2	16.9	9376	-9.5	-13.8	4.8
CCOC(=O)C(Cc1nc(OCc2ccccc2)cc(OCc2ccccc2)n1)=NO	87.4*	5.5	2.9	3468	/	-38.0	-0.9
Clc1cccc(C2Nc3cccc4cccc(c34)N2)c1	-1.7	2.8	3.0	/	-17.0	-21.7	3.8
CCOC(=O)N1CCC(NCCNC(=O)c2ccc(Cl)cc2)CC1	1.7	1.8	4.8	3578	-4.6	-20.5	1.9
CC(C)[C@H](NC(=O)[C@@H]1Cc2ccccc2CN1)C(=O)Nc1ccc2c(c1)OCO2	1.4	2.2	2.0	4400	6.1	-14.7	-3.7
C#Cc1ccc(CN2CCC(Oc3cc(C(=O)NC4CC4)ccc3OC)CC2)cc1	-0.7	5.9	-1.6	6397	-4.4	-12.3	-3.8
CCCCCc1ccc(C(=O)CCCC)c(=S)[nH]1	13.6	5.5	-13.1	2295	-1.6	-21.9	-1.3
CC(C)c1ccc(OCC(=O)NC(C)c2ccccc2)cc1 (stereo unspecified)	15.1	-0.7	7.5	3291	8.8	-34.2	-5.7
